Screening results: PubChem BioAssay, SRMLSC
H5N1 CPE = MDCK cell protection from H5N1 avian flu. cytopathic effect, luminescence, 72 h; hits give high values; no value below 0 was filed and about half of the inactive calls have no number; reference of the scale not given here. inhibition, % at 50 µM. 96,000 compounds, 0.07% hits. AID 740; in the data active = inhibition above about 25%
Numbers without * were called inactive; i = inactive.

SMILES | H5N1 CPE
O=C(CSc1cn(CCNC(=O)c2cccs2)c2ccccc12)NC1CCCCC1 | 2.7
CC(C1CC1)N(C(=O)NC1CCS(=O)(=O)C1)c1ccccc1 (configuration not stated) | 0.1
CCOC(=O)CCc1c(C)c(C#N)c2nc3ccccc3n2c1-n1ccnc1C | 1.4
COc1nc(N)nc(CC(=O)C2CC2)n1 | 0.5
O=C(O)C=C1CCN(c2ncc(C(F)(F)F)cc2Cl)CC1 | i
Cc1nn(Cc2ccc(Cl)c(Cl)c2)c(C)c1NC(=O)c1sc2ccccc2c1Cl | 0.1
CCN1CCN(Cc2ccc(NC(=O)CC3Oc4ccc(C)cc4NC3=O)cc2)CC1 (configuration not stated) | i
Cn1c(CO)cnc1SCc1ccccc1 | 0.2
O=C(NCC1CCCO1)c1ccc(NC(=O)C2C3C=CC(C3)C2C(=O)O)cc1 (configuration not stated) | i
O=C(Cn1cnc2c(cnn2-c2ccccc2)c1=O)N1CCCc2ccccc21 | 1.6
CCN(CC)CCOC(=O)c1ccc(Cl)cc1 | 0.8
CC(C)C(=O)Nc1ccc(NC(=O)c2ccccc2Cl)nc1 | 1.4
O=C1C2CC=CCC2C(=O)N1CC(=O)N(Cc1ccccc1)C1CCS(=O)(=O)C1 (configuration not stated) | 0.2
c1cncc(-c2nc3c(ccc4ccccc43)[nH]2)c1 | 2.6
CCOC(=O)Cc1nnc(NC(=O)C(CC)Sc2nnc3c4ccccc4n(C)c3n2)s1 (configuration not stated) | 2.5
CCCNC(=O)COc1ncnc2sc(C)c(C)c12 | 1.2
NC(=O)C1CCN(C(=S)c2cccs2)CC1 | 0.0
O=C(O)Cn1cc(C(=O)c2cccs2)c2ccccc21 | 0.4
CCOc1ccc(S(=O)(=O)NCCC(=O)NC2=NCCS2)cc1 | 0.6
O=[N+]([O-])c1ccc(Oc2cccc(Br)c2)c2ccncc12 | 1.5
COc1cc(C2c3c(oc4ccccc4c3=O)C(=O)N2Cc2ccncc2)ccc1O (configuration not stated) | 5.5
CC12CC3CC(C)(C1)CC(CN1CCOCC1)(C3)C2 | i
O=C(OCC(=O)N1CCc2ccccc21)c1ccc(Cl)nc1 | i
c1ccc(C2=Nc3ccccc3SC2c2nc3ccccc3[nH]2)cc1 (configuration not stated) | i
Cc1cc(C(=O)COc2cccc(-n3cnnn3)c2)c(C)n1-c1ccccc1 | 1.0
CCOc1cc(/C=N/NC(=O)Cc2ccc(C(F)(F)F)cc2[N+](=O)[O-])c(Br)cc1OC | i
O=CN(CCN(C=O)CN1CCCCC1)CN1CCCCC1 | 1.1
COc1ccc(NCc2n[nH]nc2-c2ccccc2)cc1Cl | 3.4
CC1=C(C(=O)NC(C)C)C2(CCC(C)CC2)OC1=O (configuration not stated) | i
O=C(O)c1ccc(Sc2nnnn2-c2ccccc2)c([N+](=O)[O-])c1 | 0.8
CCCCNC(=O)C(=O)NC(C)CCc1ccccc1 (configuration not stated) | 1.4
Cc1cc(C(=O)N2CCN(c3ncccn3)CC2)c2cc(F)ccc2n1 | 0.5
Cc1ccc(C)c(N=Nc2nc3ccccc3n2C)c1 | i
CCCOC(=O)CSc1nnc(-c2ccc(Cl)cc2Cl)o1 | i
COc1ccc(/C=N/NC(=O)c2ccn[nH]2)cc1COc1ccc(Cl)cc1Cl | 1.3
O=C(c1ccccc1)c1cccn1CC(=O)N1CCN(C2CCCCC2)CC1 | 0.8
CCOC(=O)c1cc(C)n(CCCN2CCOCC2)c1C | 0.2
CCCC(=O)Nc1nc2ccc(NC(=O)c3ccc(Br)o3)cc2s1 | 0.9
CC(C)(C)c1ccc(OCCn2ccccc2=O)cc1 | 25.3*
COc1ccc(Cc2c(O)nc(SC)n(C(C)=O)c2=O)cc1 | i
C=CCn1c(O)c(N=NC(=O)c2ccc3c(c2)OCO3)c2ccccc21 | i
O=C(C1=C(O)C(=O)N(CCOCCO)C1c1cccs1)c1cccs1 (configuration not stated) | 1.4
CC(=O)OC1CC(C)(C)N(OC(=O)CCCN2C(=O)c3ccccc3C2=O)C(C)(C)C1 | 0.7
Cn1ncc2c(N3CCOCC3)ncnc21 | 0.3
CCCCN1CC(O)=C(c2nc3ccccc3[nH]2)C1=N | i
O=C(CN1CCCCCC1)NCCc1ccc(F)cc1 | i
COc1ccccc1NC(=O)Cn1nnc(C(=O)Nc2ccccc2)c1N | i
COc1cc(S(=O)(=O)n2c(C)nc3ccccc32)ccc1F | i
C/C(=N/NC(=O)c1cccs1)c1cccc(NC(=O)C2CC2)c1 | 1.9
CC1Cc2cc(/C(O)=C3/C(=O)C(=O)N(CCCn4ccnc4)C3c3ccncc3)ccc2O1 (configuration not stated) | i
COC(=O)c1cc(COc2ccc3c4c(c(=O)oc3c2)CCCC4)c(C)o1 | i
O=C(Nc1nnc(SCc2c(Cl)cccc2Cl)s1)C1CCCO1 (configuration not stated) | 0.5
Clc1ccc(CN2CCC(c3nc4ccc(Cl)cc4[nH]3)CC2)cc1 | i
O=C(NCc1ccccc1)NC1CC2CCC(C1)N2Cc1ccco1 (configuration not stated) | i
CCC(C(=O)OCC(=O)Nc1c(C)n(C)n(-c2ccccc2)c1=O)c1ccccc1 (configuration not stated) | 0.3
COc1ccc(C2c3c(ncn(CCN4CCOCC4)c3=N)Oc3ccc4ccccc4c32)cc1 (configuration not stated) | i
Cc1c(Br)cc(C(=O)N2CCCCCC2)c(C)c1C | i
COc1ccc(-c2noc(CSc3nc(N)c(-c4ccccc4)c(=O)[nH]3)n2)cc1 | 0.5
COc1cccc(NC(=O)Cc2cn(C)c3ccccc23)c1 | 0.2
Nc1ccc(-c2nc3c(Cl)c(N)ccc3[nH]2)cc1 | i

An excerpt from above in order of heavy-atom count, descending:
SMILES | H5N1 CPE
COc1ccc(C2c3c(ncn(CCN4CCOCC4)c3=N)Oc3ccc4ccccc4c32)cc1 (configuration not stated) | i
CC1Cc2cc(/C(O)=C3/C(=O)C(=O)N(CCCn4ccnc4)C3c3ccncc3)ccc2O1 (configuration not stated) | i
CC(=O)OC1CC(C)(C)N(OC(=O)CCCN2C(=O)c3ccccc3C2=O)C(C)(C)C1 | 0.7
CCC(C(=O)OCC(=O)Nc1c(C)n(C)n(-c2ccccc2)c1=O)c1ccccc1 (configuration not stated) | 0.3
COc1ccc(-c2noc(CSc3nc(N)c(-c4ccccc4)c(=O)[nH]3)n2)cc1 | 0.5
COC(=O)c1cc(COc2ccc3c4c(c(=O)oc3c2)CCCC4)c(C)o1 | i
C=CCn1c(O)c(N=NC(=O)c2ccc3c(c2)OCO3)c2ccccc21 | i
O=C(C1=C(O)C(=O)N(CCOCCO)C1c1cccs1)c1cccs1 (configuration not stated) | 1.4
Clc1ccc(CN2CCC(c3nc4ccc(Cl)cc4[nH]3)CC2)cc1 | i
C/C(=N/NC(=O)c1cccs1)c1cccc(NC(=O)C2CC2)c1 | 1.9
COc1cc(S(=O)(=O)n2c(C)nc3ccccc32)ccc1F | i
CCCCN1CC(O)=C(c2nc3ccccc3[nH]2)C1=N | i
Cc1c(Br)cc(C(=O)N2CCCCCC2)c(C)c1C | i
Nc1ccc(-c2nc3c(Cl)c(N)ccc3[nH]2)cc1 | i
Cn1ncc2c(N3CCOCC3)ncnc21 | 0.3

Returning to the listing; the three compounds before the break are reprinted first.
SMILES | H5N1 CPE
COc1ccc(-c2noc(CSc3nc(N)c(-c4ccccc4)c(=O)[nH]3)n2)cc1 | 0.5
COc1cccc(NC(=O)Cc2cn(C)c3ccccc23)c1 | 0.2
Nc1ccc(-c2nc3c(Cl)c(N)ccc3[nH]2)cc1 | i
O=C(NC1CCCC1)C1CCN(S(=O)(=O)N2CCCCC2)CC1 | 0.4
CCN1CCc2c(C#N)c(N3CCOCC3)nc(NCc3ccccc3)c2C1 | 1.1
Cc1ccc(S(=O)(=O)N(c2cccc(C)c2)C2CCS(=O)(=O)C2)cc1 (configuration not stated) | i
CCOC(=O)c1ccc(N/C(=N\S(=O)(=O)c2ccccc2C)c2ccccc2)cc1 | 3.6
Cc1cccc(C)c1NC(=O)C(NC(=O)c1ccccn1)c1ccc([N+](=O)[O-])cc1 (configuration not stated) | i
O=C(NC1CCCCCC1)c1c(F)c(F)c(F)c(F)c1F | 1.9
CC1(C)CC(=O)C(C=Nc2ccc(O)cc2)=C(O)C1 | 0.0
Cc1ccccc1NC1=NC(C)(C)N=C(N)N1 | i
COc1cccc(N(C(=O)c2ccco2)C(C(=O)NC2CCCC2)c2cccnc2)c1 (configuration not stated) | i
Cc1ccc(N2C(=O)c3n[nH]c(C)c3C2c2ccccn2)cc1 (configuration not stated) | 0.0
COc1ccc(OC)c(NC(=O)Cc2coc3ccc4ccccc4c23)c1 | 1.3
CC(=O)NC1C(OCCOc2ccc(Cl)cc2Cl)OC(COC(C)=O)C(OC(C)=O)C1OC(C)=O (configuration not stated) | i
COc1ccc(/C=C/C(=O)Nc2ccccc2C(=O)N2CCCC2)cc1 | i
COC(=O)c1ccc(COc2cccc(OC)c2)o1 | 0.6
C=CC(C)Sc1nc2c(c(=O)n(C)c(=O)n2C)n1Cc1ccccc1Cl (configuration not stated) | 1.9
CCn1nc2cc(C(=O)NCC34CC5CC(CC(C5)C3)C4)ccc2c1OC | 0.1
O=C(NCCCN1CCCC1=O)c1ccc(Cl)c(NS(=O)(=O)c2ccc(F)cc2)c1 | i
CCC(=O)Nc1cc(C(F)(F)F)ccc1N1CCOCC1 | 0.3
Cc1cc(N(C)C)c(C#N)c(NCc2ccccc2)n1 | 0.3
CCOC(=O)N1CCN(CC(=O)Nc2cccc(Br)c2)CC1 | i
CC(C)[C@H](NC(=O)NCc1ccc(Cl)cc1)C(=O)O | 0.0
CCC(C)(C)n1nnnc1C(c1cccs1)N1CCc2ccccc21 (configuration not stated) | 0.1
O=C(CNC(=O)c1cccs1)NCC(=O)OCc1ccc(Cl)cc1Cl | 0.4
CCCn1nnc(NC(=O)c2cccc(OCc3ccccc3)c2)n1 | i
COc1cc(NC(=O)c2cc(-c3cccc(O)c3)on2)cc(OC)c1OC | i
O=C(Nc1nc2ccccc2s1)c1cnccn1 | i
COC(=O)C1=C(C)Nc2ncnn2C1c1ccco1 (configuration not stated) | 0.9
O=C1c2ccncc2C(=O)N1C1CCCCC1 | i
Cn1cnc2c1c(=O)n(Cc1ccccc1)c(=O)n2C | 0.3
Cc1noc(C)c1C(=O)Nc1sc(C)c(C)c1C#N | 1.9
Cc1cccc(Nc2ncccc2C(=O)O)c1C | 0.9
Cc1ccc(SCc2nc3ccccc3n2CC(=O)Nc2c(C)cccc2C)cc1 | i
O=C(CCn1ccc2ccccc21)Nc1ccc(N2CCOCC2)cc1 | 1.8
CCCOc1ccccc1C1CC(=O)NC(C)=C1C(=O)OCC(C)C (configuration not stated) | 1.9
COC(=O)c1ccccc1N/C=C1\CCc2c(c(C)nn2-c2ccccn2)C1=O | i
CSc1nc2ccc3nc(NC(=O)c4cccs4)sc3c2s1 | 1.3
COc1ccc(/C=N/NC(=O)c2nonc2C)cc1 | 1.3
CCOC(=O)C1=C(N)OC2=C(C(=O)CC(C)(C)C2)C12C(=O)Nc1ccccc12 (configuration not stated) | i
CN1CC(C(=O)c2ccccc2)C(C(=O)c2ccccc2)C1 (configuration not stated) | i
O=C(Nc1ccc(Cl)cn1)c1cnn2cccnc12 | i
C1=C(CCNc2ncnc3nc[nH]c23)CCCC1 | i
CC12CC(NC(=O)N1CCc1ccccc1)c1ccccc1O2 (configuration not stated) | 0.3
CCOC(=O)c1cc(-c2ccccc2)sc1N | i
Cc1cccc(Oc2nc(-c3cccc([N+](=O)[O-])c3)nc3ccccc23)c1C | i
CC1CCC(C(C)C)C(OC(=O)CSc2n[nH]c(=O)[nH]c2=O)C1 (configuration not stated) | i
COc1cc(C(c2sc3nc(C)nn3c2O)N2CC(C)CC(C)C2)cc(OC)c1OC (configuration not stated) | i
Cn1ccnc1Sc1nc2c(c(=O)n(C)c(=O)n2C)n1C | i
CCC(=O)N1CCc2cc(S(=O)(=O)NC(C(=O)NC(C)c3ccccc3)C(C)C)ccc21 (configuration not stated) | i
Cc1ccc(-n2nnnc2SCc2nnc(-c3ccccc3Br)o2)cc1 | 0.3
Cc1nnc(SCc2ccc(C(=O)O)cc2)s1 | i
Cc1c(Cl)c([N+](=O)[O-])nn1CC(=O)NC1CCCCC1 | 0.1
COc1cccc(CN(CC(=O)NC2CCCC2)C(=O)Cn2nnc(-c3cccs3)n2)c1 | 0.1
COc1ccc(S(=O)(=O)NCCSCc2ccco2)cc1 | i
COC(=O)c1cc(OC)c(OC)cc1NC(=O)c1ccc(C)o1 | i
Cc1oc2cc(O)ccc2c(=O)c1Oc1ccc2ccccc2c1 | i
CC1=C(C(=O)NCc2ccccc2)C(c2ccccc2OCC(N)=O)NC(=O)N1 (configuration not stated) | i
O=C(c1cccc(S(=O)(=O)N2CCOCC2)c1)N(CCO)Cc1ccccc1 | 0.1
CC(=NCc1ccco1)c1c(C(F)(F)F)[nH]n(-c2nc3ccccc3s2)c1=O | i
Cn1c(SC2C(=O)CC(C)(C)CC2=O)nnc1-c1ccco1 | i
COc1ccccc1Nc1ncnc2ccccc12 | i

New compounds follow:
SMILES | H5N1 CPE
Cc1ccc2c(c1)c(C)c(C)n2CC(O)CN1CCCCC1C (configuration not stated) | 0.5
COc1cc(NS(=O)(=O)c2ccc(N/C=C(\C=O)c3nc4cc(Cl)ccc4o3)cc2)nc(OC)n1 | 0.1
CCOc1ccc(N2C(=O)CC(SCCN)C2=O)cc1 (configuration not stated) | i
CCCc1nc2sc3c(c2c(=O)n1NC(=O)CCCl)CCCC3 | 0.3
CCOC(=O)c1cnn(-c2nc(-c3cccc(F)c3)cs2)c1C(F)(F)F | i
CCn1c(=O)c(-c2ccccc2)c(O)c2ccccc21 | 0.1
C=CCn1c(SCC(=O)Nc2ccc(N(C)C)cc2)nnc1-c1cccc(C)c1 | i
C1=CCC(/C=N/n2cnnc2)CC1 (configuration not stated) | 0.2
COCc1nc2ccccc2n1CCCOc1ccccc1 | 0.6
Cc1nc2ccccc2c(=O)n1NC(=O)Cc1ccc(Br)cc1 | 0.9
CCOc1ccc(-c2nnn(CC(=O)Nc3cc(OC)cc(OC)c3)n2)cc1OCC | i
CNC(=O)c1ccccc1-c1ccccc1 | i

Some of the compounds tested; count on the stated rates, not on these rows.
